AID504770 = growth inhibition of E. coli YBA685, primary screen, V. cholerae RctB inhibitors; z-score (test concentration not listed); 0.27% of 130,000 active; E. coli YBA685 rctB-dependent plasmid, OD600 growth, 3 h; stronger effect = lower value;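 active = z-score under -2 on both plates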;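 note: wells of about 30 µL received 100 nL stock; score is relative to mean and SD of the test wells; the first replicate is given; strong numbers were not always called active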
Ba CapD inh = Bacillus anthracis CapD inhibitors, primary screen, biochemical, fluorescence intensity; CapD gamma-glutamyltranspeptidase (Bacillus anthracis Ames Ancestor); purified CapD enzyme, fluorescence intensity read-out; stronger effect = lower value; some hits fall short of the stated cut; z-score (test concentration not listed); 0.23% of 140,000 active; AID 492967, 2010;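 active = z-score under -4 in either of two replicates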;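 note: stock transfer was 100 nL into about 40 µL; score is relative to mean and spread of the plate; one replicate is shown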
Active calls of the source: *.

The first 6 compounds (preview)
COc1cccc(OCc2nc3ccccc3[nH]2)c1 was read as AID504770 -2.1 and Ba CapD inh 0.59.
CCN1CCN(c2ccc(N)cc2C)CC1 was read as AID504770 -0.1.
`Cc1ccc(N=C(C#N)C2=C(O)c3ccccc3C2=O)cc1F` gave AID504770 -0.8 and Ba CapD inh 0.58.
Screening CCOC(=O)C1=C(N)OC2=C(C(=O)CC(c3ccccc3)C2)C1c1cccs1 (stereo not given) returned Ba CapD inh -0.43.
`COc1ccc(O)c(/C=N/Nc2nc3ccccc3nc2Cc2ccccc2)c1` gave Ba CapD inh -0.67.
`COC(=O)CN(c1ccc2c(c1)OCCO2)S(C)(=O)=O` gave AID504770 0.05 and Ba CapD inh 0.23.

This part in full, from the start:
COc1cccc(OCc2nc3ccccc3[nH]2)c1 was read as AID504770 -2.1 and Ba CapD inh 0.59.
CCN1CCN(c2ccc(N)cc2C)CC1 was read as AID504770 -0.1.
`Cc1ccc(N=C(C#N)C2=C(O)c3ccccc3C2=O)cc1F` gave AID504770 -0.8 and Ba CapD inh 0.58.
Screening CCOC(=O)C1=C(N)OC2=C(C(=O)CC(c3ccccc3)C2)C1c1cccs1 (stereo not given) returned Ba CapD inh -0.43.
`COc1ccc(O)c(/C=N/Nc2nc3ccccc3nc2Cc2ccccc2)c1` gave Ba CapD inh -0.67.
`COC(=O)CN(c1ccc2c(c1)OCCO2)S(C)(=O)=O` gave AID504770 0.05 and Ba CapD inh 0.23.
CC(C)n1c(CO)nc2ccccc21 was read as AID504770 -0.65 and Ba CapD inh 0.04.
`O=C(O)c1cccc(N2C(=O)/C(=C/c3ccc(-c4cc(Cl)ccc4Cl)o3)C=C2c2ccccc2)c1` gave Ba CapD inh 0.27.
For Cc1c(Cc2ccccc2)c(-n2ccnc2C)n2c(nc3ccccc32)c1C#N the results were AID504770 1.2 and Ba CapD inh -0.09.
`CCOc1cc(/C=C2\SC(=NC)N(C)C2=O)cc(Cl)c1OC(C)=O` gave Ba CapD inh 0.06.
`CCOC(=O)c1cnc(SCC(=O)N2CCCCC2C)nc1N` (stereo not given) gave AID504770 0.3 and Ba CapD inh -0.03.
O=C1CSC(c2ccccc2)N1C1CCCCC1 (stereo not given) was read as AID504770 -0.75 and Ba CapD inh 44.
For CSC1=NC(=Nc2ccccc2)C2(CCCCC2)N1c1cccc(Cl)c1 the results were Ba CapD inh -0.44.
Screening COc1cc(CCNC(=O)OCC(F)F)cc(OC)c1 returned Ba CapD inh -0.27.
COc1ccc(C(C(=O)NN(C(C)=O)c2ccccc2)(c2ccc(F)cc2)c2ccc(F)cc2)cc1 was read as Ba CapD inh -0.015.
COC(=O)c1c(C)oc(C)c1S(=O)(=O)N1CCOCC1 was read as AID504770 0.25 and Ba CapD inh 9.5.
`COc1cc(OC)nc(Oc2ccc3c(-c4ccccn4)cc(=O)oc3c2)n1` gave Ba CapD inh 13.
Screening COc1ccc(NC(=O)c2cc(-c3ccco3)nc3ccccc23)cc1Cl returned AID504770 0.1 and Ba CapD inh 2.6.
`CN(CC(=O)Nc1ccccc1C(=O)Nc1ccccc1)C1CCS(=O)(=O)C1` (stereo not given) gave AID504770 -0.3.
`O=C(O)CSCC(=O)N1CCN(Cc2ccc3c(c2)OCO3)CC1` gave AID504770 -0.05 and Ba CapD inh 0.75.
COc1ccc(CCNc2ncnc3c2cnn3-c2ccc(C)cc2C)cc1OC was read as Ba CapD inh -0.6.
Cc1cc(C(=O)NC2CCN(Cc3c(F)cccc3Cl)CC2)no1 was read as AID504770 -0.15 and Ba CapD inh 0.71.
`O=S(=O)(Nc1cc(C(F)(F)F)ccc1N1CCc2ccccc2C1)c1cccc2nonc12` gave AID504770 -1.1 and Ba CapD inh 1.3.
`CCN1CCN(c2ccc(NC(=O)c3ccc(C)cc3)cc2)CC1` gave AID504770 -0.75 and Ba CapD inh -0.015.
`Cc1occc1C(=O)N1CCN(c2ccc(Cl)c(Cl)c2)CC1` gave AID504770 1.4 and Ba CapD inh -0.8.
Screening Cc1cc(C(F)(F)F)cc(-n2cc(C#N)c(N)n2)n1 returned AID504770 -0.4 and Ba CapD inh -0.81.
O=C(N/N=C/c1cccc(Cl)c1Cl)c1ccccc1CCc1ccccc1 was read as Ba CapD inh -0.58.
`Cc1sc2ncn(CC(=O)NCC(=O)N3CCN(C)CC3)c(=O)c2c1C` gave Ba CapD inh -0.3.
OC1CC(c2ccccc2)c2cccc(Oc3cccc(C(F)(F)F)c3)c21 (stereo not given) was read as Ba CapD inh -0.36.
For CCN(Cc1ccncc1)Cn1c(=S)oc2ccccc21 the results were AID504770 0.75.
`COc1ccc(N2CCN(c3ncnc4sc(C(=O)N5CCC(C(N)=O)(N6CCCCC6)CC5)c(C)c34)CC2)cc1` gave Ba CapD inh 0.095.
For COc1ccc(OCc2cccc(C(=O)O)c2)cc1 the results were AID504770 0.8 and Ba CapD inh -0.22.
Screening CC(C)Cn1c(=O)c(C2=NS(=O)(=O)c3ccccc3N2)c(O)c2ccccc21 returned AID504770 2.1 and Ba CapD inh -1.5.
Screening Oc1ccc(-c2ncc(-c3cnccn3)c(-c3ccccc3)n2)cc1 returned Ba CapD inh 3.7.
Screening Nc1cccc2c1C(=O)N(c1ccc(Cl)c(Cl)c1)C2=O returned AID504770 -0.25 and Ba CapD inh 1.1.
CC(=O)OCC12COC(c3ccc(OC(C)=O)cc3)C(C(C)=CC1C)C2C (stereo not given) was read as Ba CapD inh -0.41.
Screening Cc1c(Sc2ccc(Cl)cc2)c(=O)[nH]c2cc3c(cc12)OCO3 returned AID504770 -1.4 and Ba CapD inh 1.7.
COC(=O)/C=C1\SC(NC(C)=O)=NC1=O was read as AID504770 0.35 and Ba CapD inh 0.82.
`Cc1c(C(=O)c2ccc(Cl)cc2)oc2ccc(Br)cc12` gave Ba CapD inh 0.045.
`CCCn1c(=O)c(Br)cn(-c2ccccc2C)c1=O` gave AID504770 -0.25 and Ba CapD inh 0.3.
`O=C(CCC(=O)N1CCOc2ccccc21)NCc1ccco1` gave AID504770 0.2 and Ba CapD inh -0.54.
Screening O=C1CC(N2CCCC2)C(=O)N1c1ccccc1 (stereo not given) returned AID504770 -1.1.
Screening COC12CCCC(C(=O)O)(CCC1)C2 returned AID504770 -0.35 and Ba CapD inh 0.38.
`Cc1ccccc1CNCc1ccco1` gave AID504770 -0.45 and Ba CapD inh 0.055.
`O=C(/C=C/c1ccco1)/C=C/c1ccco1` gave AID504770 -0.85 and Ba CapD inh 0.035.

3 structures already listed, arranged by formula weight, low to high.
For COc1ccc(OCc2cccc(C(=O)O)c2)cc1 the results were AID504770 0.8 and Ba CapD inh -0.22.
Screening Oc1ccc(-c2ncc(-c3cnccn3)c(-c3ccccc3)n2)cc1 returned Ba CapD inh 3.7.
`COc1ccc(N2CCN(c3ncnc4sc(C(=O)N5CCC(C(N)=O)(N6CCCCC6)CC5)c(C)c34)CC2)cc1` gave Ba CapD inh 0.095.

(more compounds)
Screening NNc1ncnc2sccc12 returned AID504770 -0.65.
CN(C1CCCCC1)S(=O)(=O)c1ccc(-c2ccccn2)s1 was read as AID504770 -2.6 and Ba CapD inh 0.42.
CCOc1ccc2[nH]c3nc4ccccc4nc3c2c1 was read as Ba CapD inh 1.1.
For COc1ccc(-c2noc(CNC(=O)CC(c3ccccc3)c3ccccc3)n2)cc1 the results were AID504770 -1.1 and Ba CapD inh -1.1.
Screening O=C1CCN(Cc2ccccc2)C(=S)N1 returned AID504770 -0.65.
For Fc1cccc(Cl)c1CN1CCN(CCCNc2ncnc3scc(-c4ccccc4)c23)CC1 the results were AID504770 -0.55 and Ba CapD inh -1.6.
`CN1C(=O)c2ccc(-c3nc4ccc(Cl)cc4c(=O)o3)cc2C1=O` gave AID504770 0 and Ba CapD inh -0.14.
For Cc1ccc(C(=O)Nc2sc3c(c2C(=O)Nc2ccccn2)CCCCC3)cc1 the results were Ba CapD inh -0.31.
For Cc1ccc(NC(=S)NC(=O)C23CC4CCC(CC(C4)C2)C3)cc1 the results were AID504770 0 and Ba CapD inh 2.5.
For Cc1c(C(=O)N2CC(C)CC(C)C2)sc2ncn(C)c(=O)c12 (stereo not given) the results were Ba CapD inh -0.53.
Screening O=C(NC(=S)Nc1ccncc1)c1ccccc1 returned AID504770 -0.7 and Ba CapD inh -0.64.
For CCC(C)NC(=O)C1CCN(S(=O)(=O)c2ccc3c(c2)CCCC(=O)N3)CC1 (stereo not given) the results were AID504770 -0.55 and Ba CapD inh -0.26.
Screening Cc1c(N2C(=O)/C(=C3/C(=O)N(CC(=O)O)c4ccccc43)SC2=S)c(=O)n(-c2ccccc2)n1C returned Ba CapD inh -2.3.
`O=C(Nc1ccc(Br)cc1F)c1cc(S(=O)(=O)N2CCN(C3CCCCC3)CC2)ccc1F` gave Ba CapD inh 0.28.
`O=C(/C=C/c1ccc2c(c1)OCO2)OCc1ccccc1` gave AID504770 -1.3 and Ba CapD inh 32.

Entries listed so far that have an aryl thioether with sulfur outside any ring (2):
`CCOC(=O)c1cnc(SCC(=O)N2CCCCC2C)nc1N` (stereo not given) gave AID504770 0.3 and Ba CapD inh -0.03.
Screening Cc1c(Sc2ccc(Cl)cc2)c(=O)[nH]c2cc3c(cc12)OCO3 returned AID504770 -1.4 and Ba CapD inh 1.7.

Additional results follow.
`Cc1ccc(-n2c(C)cc(C=C3C(=O)N(C)C(=S)N(C)C3=O)c2C)cc1[N+](=O)[O-]` gave Ba CapD inh -0.16.
For C=CCN1C(=O)CSC1=Nc1ccc(C(=O)O)cc1 the results were AID504770 -0.35.
`N#Cc1c(NC(=O)CC(=O)CSc2ncnc3sc4c(c23)CCC4)sc2c1CCCC2` gave Ba CapD inh -0.4.
`O=C(O)CN1C(=O)/C(=C2\SC(=Nc3ccc(Br)cc3)NC2=O)c2ccccc21` gave AID504770 -1.4.
CC(=O)O[C@]1(C(C)=O)CCC2C3CCC4=CC(=O)CCC4(C)C3(F)C(O)CC21C (stereo not given in full) was read as Ba CapD inh -0.44.
Screening C=CCN1C(=O)/C(=C2\SC(=S)N(C3CCS(=O)(=O)C3)C2=O)c2cc(Br)ccc21 (stereo not given) returned Ba CapD inh -0.22.
Screening COc1ccc(C(=O)NCc2nc3ccccc3n2CC(C)C)cc1OC returned AID504770 0.95 and Ba CapD inh -0.38.
`CC(=O)Nc1ccc2c(c1)nc(C)n2Cc1ccccc1` gave AID504770 -0.35.
For O=C(/C=C/c1ccccc1)Nc1ccc(Oc2ccc(F)cc2)nc1 the results were AID504770 0.05 and Ba CapD inh -1.5.
`CCCCCCCCN=Cc1sc2ccc(OCC)cc2c1O` gave Ba CapD inh -0.37.
COc1ccc(CCNC(=O)OCCc2ccccc2F)cc1 was read as Ba CapD inh -1.4.
Screening CCOC(=O)c1c(-n2c(C)ccc2C)sc2c1CCCC2 returned Ba CapD inh -0.06.
For N#CC(C#N)=C(N)Nc1cccc(Cl)c1 the results were AID504770 -0.75 and Ba CapD inh 0.1.
Screening Cc1cc(NS(=O)(=O)c2ccc(NC(=O)CSc3nnc(-c4ccccn4)n3Cc3ccco3)cc2)nc(C)n1 returned AID504770 -0.6 and Ba CapD inh -0.21.
CCC(=O)c1c(C)nc2n(Cc3ccccc3)c3ccccc3n12 was read as AID504770 -0.7 and Ba CapD inh -0.14.
CCC(=O)N(C)C1(c2nnnn2-c2cccc(Cl)c2)CCCCC1 was read as Ba CapD inh -0.27.
OC(c1ccc(Cl)cc1)C(O)c1nc2ccccc2[nH]1 (stereo not given) was read as AID504770 -0.3.
Screening CCc1ccc(C2NC(=O)c3c(sc4c3CCN(C)C4)N2)cc1 (stereo not given) returned AID504770 1.8 and Ba CapD inh -0.38.
Screening CCOC(=O)CNc1nc(Cl)nc(Nc2ccc(C)cc2)n1 returned Ba CapD inh -0.28.
Screening CCOC(=O)CCCCCOC(=O)NNC(=O)/C=C/c1ccc(F)cc1Cl returned Ba CapD inh 19.
Screening COc1ccc(S(=O)(=O)c2cn(CC(=O)Nc3cccc(OC)c3)c3nc(C)ccc3c2=O)cc1 returned AID504770 -0.55 and Ba CapD inh 0.38.
`COc1cccc(Cn2cc(NC(=O)Nc3ccc(F)cc3F)cn2)c1` gave AID504770 -0.7 and Ba CapD inh -0.67.
For c1ccc2sc(C3CCCN3Cn3nnc4ccccc43)nc2c1 (stereo not given) the results were AID504770 0.9.
Screening COc1ccc(C(=O)CN2C3=NCCN3c3ccccc32)cc1OC returned Ba CapD inh 0.11.
Screening COc1ccc2c(c1)c(C(=O)Nc1nccs1)c(C)n2C1CCCCC1 returned AID504770 0.4.
Screening COC(=O)c1c(NC(=O)Cn2nc([N+](=O)[O-])c(Br)c2C)sc2c1CCC(C)C2 (stereo not given) returned Ba CapD inh -0.48.
Cc1c(C(=O)N=c2sc3ccccc3n2C)sc2nc3n(c(=O)c12)CCC3 was read as AID504770 0.6.
For NS(=O)(=O)c1ccc(CCNC(=O)CCCCCNC(=O)OCc2ccccc2)cc1 the results were Ba CapD inh -0.86.
O=C(CN1CCC(NC(=O)NC2CCCCC2)CC1)Nc1cccc(I)c1 was read as AID504770 -1.3.
For O=S(=O)(NCc1ccncc1)c1ccccc1 the results were AID504770 -0.65 and Ba CapD inh -0.07.
`O=[N+]([O-])c1c(NCc2ccccc2)cc(N2CCOCC2)c2nonc12` gave Ba CapD inh -0.26.
Screening Cc1noc(C)c1COc1ccc(C(=O)N2CCOCC2)cc1 returned AID504770 0.2.
Screening COc1ccccc1C(=O)Nc1sccc1C#N returned AID504770 -0.4 and Ba CapD inh 11.
Screening CN1CCN(CCCNC(=O)CSc2c3c(nc4ccc(Cl)cc24)CCCC3)CC1 returned AID504770 0.05 and Ba CapD inh -0.21.
Screening COC(=O)c1ccccc1S1=NS(=O)(=O)c2ccccc21 (stereo not given) returned AID504770 -0.75 and Ba CapD inh -0.27.
Screening COC(=O)C(C)Sc1ccc2nnc(-c3cccnc3)n2n1 (stereo not given) returned AID504770 1.
Screening O=C(OCC(=O)N1CCCC1=O)c1ccc2ccccc2n1 returned AID504770 -0.55.
For CC(C)(C)C(=O)Nc1c(Br)c(C2CC2)nn1-c1ccccc1 the results were AID504770 0.05 and Ba CapD inh 0.48.

From PubChem
